Bioassay records (PubChem BioAssay)
PrP UTR inh = inhibition of PrP 5' UTR reporter expression. inhibition, % (no concentration beside the values). actives 0.35% (n = 340,000). cell-based PrP 5' UTR mRNA reporter, plate reader;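 active = every replicate at 50% or more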;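 also: 0 = median of the neutral control wells; tested in H4 reporter cells; numbers are from one replicate; inactives centre near -14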
BJeLR lethal = MLPCN primary cell-based screen for lethality selective to Ras in HRASV12 cells; BJeLR (HRASV12) viability, CellTiter-Glo ATP luminescence, 48 h; reference of the scale not given here; inhibition, % (concentration not given with the values); actives 0.17% (n = 300,000); AID 1554, 2009;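 active = replicate mean above 50%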;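 also: 50 nL library stock added to about 25 µL; numbers are from one replicate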
Bead autofluor = compound fluorescence in toxin protease inhibitor counterscreen. compound autofluorescence counterscreen, microsphere flow cytometry; active compounds read high. fluorescence intensity (no concentration beside the values). actives 3.1% (n = 360,000). AID 624483;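 active = at least 3 SD above the mean of all compounds, about 16000 in these data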;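 also: 100 nL of 1 mM stock went into each well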
RN4220 kill = growth inhibition of S. aureus RN4220, primary screen, OD600. 16 h. inhibition, % (test concentration not listed). actives 0.33% (n = 330,000). AID 1259311, 2017;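 active = z-score of -3 or lower and OD600 up to 0.18 on both plates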;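 also: plate controls were untreated cells for no effect and reference antibiotic for full effect; stock transfer was 100 nL into about 80 µL; one replicate is shown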
Mtb hypoxia rep = PubChem AID 1159583 | fluorescence inhibition, % (no concentration beside the values) | actives 0.1% (n = 300,000) | M. tuberculosis hypoxia-regulated fluorescent reporter, fluorescence;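 active = 35 to 45% if threefold the growth effect, above 45% if 1.5-fold the growth effect; inactive = the rest, general growth blockers included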;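 also: wells of about 50 µL received 100 nL stock; 0% = vehicle wells and 100% = reference inhibitor wells; whole bacteria with a GFP reporter of the hypoxia response; strong numbers were not always called active; many hits fall short of the cut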
ugtP null kill = growth inhibition of ugtP-null S. aureus, primary screen, RN4220 ugtP deletion, OD600. 16 h; some inactives read as strong as hits. growth inhibition, % (no concentration beside the values). actives 0.54% (n = 330,000). AID 1259309, 2017;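 active = z-score under -3 and OD600 up to 0.15 on both plates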;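 also: plate controls were untreated wells for no effect and antibiotic for full effect; wells of about 80 µL received 100 nL stock; the first replicate is given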
Mtb hypoxia rep growth = recorded beside Mtb hypoxia rep, whose call it bears; growth inhibition, %; measured here: M. tuberculosis growth (absorbance);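 0% = vehicle and 100% = reference antibiotic; read after six days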
* = called active by the depositor; / = no result given; & = joins results of further samples.

entry	Molecule	PrP UTR inh	BJeLR lethal	Bead autofluor	RN4220 kill	Mtb hypoxia rep	Mtb hypoxia rep growth	ugtP null kill
1	CCCCn1c(=O)nc2n(-c3ccccc3C)c3ccccc3cc-2c1=O	-18	-2	2557	0.2	13	2	7
2	N=c1ccn2c(n1)OC1C(O)C(CO)OC12 (stereo unspecified)	41	21	3642	/	/	/	/
3	COc1ccc(N2C(=O)C3CCCN3C2c2ccccc2)cc1Cl (stereo unspecified)	-16	-8	4581	4.1	20	22	5
4	COc1cccc(C(=O)Nc2cccc(-c3nnc(-c4ccccc4)o3)c2)c1	-21	-10	3546	3.9	4	-4	0
5	COc1ccc2ccccc2c1CNC(=O)CC1C(=O)NCCN1CC(C)C (stereo unspecified)	-13	-8	5814	6.5	3	1	2
6	Cc1cc(C)c(S(=O)(=O)Nn2cnnc2)c(C)c1	48	7	3430	0.2	15	-2	3
7	Fc1ccccc1-n1[nH]nnc1=S	3	8	4056	1.2	6	13	-11
8	O=C(NN=Cc1ccco1)c1cccc([N+](=O)[O-])c1	/	/	/	4.4	8	7	2
9	CCc1ccc(NC(=O)CNC(=O)Cn2ccc3ccccc3c2=O)cc1	-15	14	3759	-0.4	2	4	1
10	O=C(Nc1ccccc1C(F)(F)F)c1ccc(F)c(S(=O)(=O)N2CCOCC2)c1	-19	1	10885	3.2	1	8	-2
11	Cc1ccc(-c2ccc(=O)n(CC(=O)N3CCC4(CC3)OCCO4)n2)cc1	-23	10	4199	5.9	7	-1	2
12	CCOC(=O)CNC(=O)C1CCCN(c2ncccn2)C1 (stereo unspecified)	-14	6	9861	0.6	-10	-3	6
13	CCOC(=O)N1CCC(NC(=O)c2ccc3c(c2)N(Cc2ccc(C)cc2)CCS3)CC1	-5	3	5781	-13	0	1	-4
14	CC(Sc1ccc([N+](=O)[O-])cn1)C(=O)Nc1nccs1 (stereo unspecified)	-37	-12	5287	/	/	/	/
15	N#Cc1nc(-c2ccc(Cl)cc2)oc1N1CCCCC1	-2	-4	8896	6.4	10	-5	15
16	CC1=C(C)C(=O)C(N2CCOCC2)=CC1=O	7	-3	2215	8.8	9	9	9
17	CCCCN(C)C1CCN(C(=S)Nc2cccc(SC)c2)CC1	2	-1	4978	1.7	0	-4	9
18	CN(C)CCNC(=O)C(=O)NCC1OCCN1S(=O)(=O)c1cc(F)ccc1F (stereo unspecified)	-10	3	6148	1.6	4	3	2
19	CCc1ccc(CNC(=O)C2CCN(c3nnc(C)c4c(C)n(-c5ccc(C)cc5)nc34)CC2)cc1	-14	4	/	-4.6	-3	7	-5
20	Cc1cc([N+](=O)[O-])nn1CC(=O)Nc1ccccn1	-13	3	2477	8.9	1	6	5
21	CCc1nnc(NC(=O)Cn2nc(-c3ccccc3OC)ccc2=O)s1	-8	-8	22524*	11	6	2	9
22	Fc1cccc(Nc2nc(Cl)nc(Cl)n2)c1	-8	5	4098	/	/	/	/
23	CCC1SC(=NN=Cc2ccco2)N(Cc2ccccc2)C1=O (stereo unspecified)	/	/	/	5.3	5	-4	13
24	CCc1ccc2c(c1)C1(SC(NC(C)=O)=NN1C(C)=O)C(=O)N2CC (stereo unspecified)	-34	-5	4328	1.5	2	3	7
25	CC1CCc2c(C(=O)NCC3CCCO3)csc2C1 (stereo unspecified)	-36	3	4083	6.6	/	/	-5

The final three records of the section above lead into the next:
entry	Molecule	PrP UTR inh	BJeLR lethal	Bead autofluor	RN4220 kill	Mtb hypoxia rep	Mtb hypoxia rep growth	ugtP null kill
23	CCC1SC(=NN=Cc2ccco2)N(Cc2ccccc2)C1=O (stereo unspecified)	/	/	/	5.3	5	-4	13
24	CCc1ccc2c(c1)C1(SC(NC(C)=O)=NN1C(C)=O)C(=O)N2CC (stereo unspecified)	-34	-5	4328	1.5	2	3	7
25	CC1CCc2c(C(=O)NCC3CCCO3)csc2C1 (stereo unspecified)	-36	3	4083	6.6	/	/	-5
26	O=C(Nc1ccccc1)OCCCc1ccccc1	-57	-1	4014	8.9	-4	-2	3
27	CNC(=O)c1sccc1SCc1c(Cl)cccc1Cl	-17	-1	2926	13	/	/	-11
28	CN1CCc2c(c3c(n2C)CCN(C)C3c2cccnc2)C1c1cccnc1 (stereo unspecified)	/	/	/	9.9	-2	-15	2
29	Cc1cccc(C(=O)Nc2cccc3c2CCCC3)c1	-18	-6	4143	20	14	21	11
30	COCCCN(C(=O)C1CCC1)c1c(N)n(Cc2ccccc2)c(=O)[nH]c1=O	-14	/	/	9.4	8	2	3
31	NC(=O)c1ccc(SCC(=O)OCC(=O)NCC2CCCCC2)c([N+](=O)[O-])c1	-10	9	6190	/	/	/	/
32	CCN1C(=O)[C@@H]2[C@@H](c3ccc(-c4ccc(OC)cc4)c(OC)c3)N3CCC[C@@]3(C(=O)OC)[C@@H]2C1=O	-8	5	4012	/	/	/	/
33	Cc1nnc(N/N=C\c2ccc(-c3ccccc3[N+](=O)[O-])o2)n1N	-2	-10	2097	/	/	/	/
34	CCOC(=O)CC1COc2ccccc2N1C(=O)c1ccc(C)cc1 (stereo unspecified)	-24	-6	8671	2.3	6	7	5
35	Cc1cc(NC(=O)CSc2nnc(-c3cccc(Cl)c3)o2)no1	-13	3	7540	-2.0	17	6	6
36	CC(=O)Nc1cccc(-n2nnc(SCC(=O)N(C)c3ccccc3)n2)c1	-19	4	4676	2.2	14	12	6
37	CC(=NNC(=O)c1cc(-c2ccc(Br)s2)[nH]n1)c1ccncc1	/	/	/	12	10	9	-7
38	CCCCc1nc2ccccc2c(NC(=O)CN2CCCC2)c1CCC	-27	-5	9522	6.1	5	-2	13
39	Cc1c(O)ccc(C(=O)CN2CC(C)OC(C)C2)c1O (stereo unspecified)	-8	-1	6275	4.1	0	-4	8
40	Cc1cccc(N/N=C(\C#N)S(=O)(=O)C(C)(C)C)c1	-22	0	4480	/	/	/	/
41	CCOP(=O)(OCC)C(NC(=O)Nc1cccc(Cl)c1)c1ccccc1 (stereo unspecified)	-15	-4	2363	5.0	-5	0	4
42	CCC(c1nnnn1CC1CCCO1)N(CCCO)Cc1cc2cccc(C)c2[nH]c1=O (stereo unspecified)	-22	0	10437	2.1	12	17	2
43	CCN(CC)C(=O)[C@H]1C[C@H](CC(=O)NCc2cccc(C(F)(F)F)c2)C(=O)N2CCc3c([nH]c4ccc(Cl)cc34)[C@]12C	5	/	3102	-2.4	-11	-6	-30
44	CCC(=O)NNc1nc2c(F)cccc2s1	-22	7	4458	-4.9	-1	2	-11
45	COc1ccc(C(=O)NCc2ccco2)cc1S(=O)(=O)NC1CC1	-22	/	8639	1.7	-10	2	6
46	O=C(Nc1ccc([N+](=O)[O-])cc1NC(=O)c1ccccc1)c1ccccc1	-1	/	3350	3.8	14	7	-18
47	O=c1/c(=C\c2ccc(O)cc2)sc2nc(-c3ccccc3)c(-c3ccccc3)n12	-26	7	4859	/	/	/	/
48	Cn1c(=O)c2c(nc(NCCNC(=O)c3ccco3)n2Cc2ccccc2)n(C)c1=O	-26	-2	3761	5.2	15	7	6
49	O=C(COc1ccc(/C=N/NS(=O)(=O)c2ccccc2)cc1)NCCc1ccccc1	1	5	2963	/	/	/	/
50	COc1ccc(-c2cc(C(=O)NNC(=O)c3csc(N4CCOCC4)n3)c3ccccc3n2)cc1	-22	-4	4677	3.8	2	-1	11

entry	Molecule	PrP UTR inh	BJeLR lethal	Bead autofluor	RN4220 kill	Mtb hypoxia rep	Mtb hypoxia rep growth	ugtP null kill
51	Cc1nn(C(C)C(=O)O)c2ccccc12 (stereo unspecified)	-17	1	12605	1.7	1	-1	6
52	CC(=O)N1CCC(=NNc2nc3ccccc3[nH]2)CC1	-20	-2	3490	2.6	12	15	-2
53	COc1cc(C)c(NC(=O)COc2cccc3c2OC(C)(C)C3)cc1OC	-30	/	7863	3.4	2	6	6
54	NC(=NC(=O)c1ccccc1)N1CCOCC1	-28	6	12778	4.7	2	9	2
55	COc1ccc(NC(=O)c2[nH]c(C)c(C(C)=O)c2C)cc1	-79	-14	4240	1.8	-6	10	-12
56	O=C(NC(=S)N1CCCCC1)c1cccs1	-8	-5	1982	2.9	2	-5	8
57	Cc1cc(C)n(CCCNCC(O)c2ccccc2)n1 (stereo unspecified)	-15&-14	-7	3976&3828	0.4&0.7	6&6	6&6	-1&3
58	O=C(CN1CCN(c2ccccc2O)CC1)Nc1ccccc1C(=O)NCCc1ccccc1	-29	/	8926	9.5	-3	3	-8
59	CC(C(=O)NCc1ccc2c(c1)OCO2)N1c2cccc3cccc(c23)S1(=O)=O (stereo unspecified)	-6	-8	7470	3.1	7	4	10
60	COc1cccc(-c2nc(CS(=O)(=O)CC(=O)NCCCOC(C)C)c(C)o2)c1	-27	1	21662*	3.1	3	3	3
61	COc1nc(C)nc(NC(=O)NS(=O)(=O)c2ccc(C)cc2)n1	-13	7	3477	4.0	/	/	-1
62	CCOC(CNC(=O)c1ccc(CNC(=O)c2ccc(OC)c(OC)c2)cc1)OCC	-1	-10	4306	13	10	8	2
63	COC(=O)c1ccc(N2CCOCC2)c(NC(=O)Nc2cccc(OC)c2)c1	-20	-6	5956	-1.0	-1	-4	-4
64	COC(=O)c1sc(NC(=O)c2oc3ccccc3c2C)nc1C	-8	0	2993	1.7	8	2	4
65	O=C(NCc1ccccc1)C1(C(F)(F)F)C/C(=C/CCO)CCCO1 (stereo unspecified)	-5	0	3587	/	/	/	/
66	O=C1CCCCC1C(=O)c1ccccc1 (stereo unspecified)	/	8	/	3.3	12	0	5
67	CCCCCn1c(N)c(C#N)c2nc3ccccc3nc21	-19	-10	12767	4.3	11	7	-8
68	Cc1cc2ncn(C3CC(=O)N(Cc4ccc(N5CCCC5=O)cc4)C3=O)c2cc1C (stereo unspecified)	-18	-5	6018	2.9	/	/	8
69	O=C(CC(=O)c1ccccc1)Nc1ccccn1	-47	3	3543	6.1	10	0	1
70	CC(Nc1ccc2ccccc2c1)C(=O)NN=Cc1ccncc1 (stereo unspecified)	/	/	/	-1.0	-1	-1	-1
71	NS(=O)(=O)c1ccc(CNC(=O)C23CC4CC(CC(C4)C2)C3)cc1	-16	-5	3115	3.1	7	3	16
72	COC(=O)/C(=C\Nc1ccc(Cl)cc1Cl)NC(=O)c1ccc(OC)cc1	-11	37	4702	0.7	-4	11	11
73	Cc1cccc(CCNc2nc3ccccc3n3nnnc23)c1	3	-13	4645	6.5	-3	7	-5
74	O=C(c1c[nH]c(C(=O)N2CCN(c3ccccc3F)CC2)c1)c1cccc(Cl)c1Cl	-38	2	4609	0.1	-4	5	-14
75	Cn1ccnc1SCC(=O)NC1CC1	12	4	2125	-0.3	/	/	-1

entry	Molecule	PrP UTR inh	BJeLR lethal	Bead autofluor	RN4220 kill	Mtb hypoxia rep	Mtb hypoxia rep growth	ugtP null kill
76	O=C(CCC(=O)N1CCN(c2ccccn2)CC1)c1cccs1	-36	/	2852	4.6	6	-5	12
77	CCCCC(=O)Nc1ccc(NC(=O)c2ccccc2OC)cn1	-9	-2	4118	-5.1	4	-1	14
78	CCOC(=O)c1nnc2cc(-c3ccc(Br)cc3)nn2c1C	-37	5	2892	6.8	-3	3	-2
79	CC(C)CNS(=O)(=O)c1ccc(OCC(=O)NCC2CCCO2)c(Cl)c1 (stereo unspecified)	7	4	3430	6.4	/	/	5
80	CN1CCC(=O)N([C@H](CN=[N+]=[N-])Cc2ccccc2)CC1	-13	-13	3844	/	/	/	/
81	CC(=O)Nc1ccccc1NC(=O)C/C(C)=N/NC(=O)C(=O)Nc1cccc(Cl)c1C	-2	-12	4369	/	/	/	/
82	Cc1ccc2[nH]c(=O)c(CN(Cc3cccnc3)C(=O)c3ccncc3)cc2c1	-19	/	9713	4.6	-1	9	-1
83	CCN(CC(=O)NC1CCS(=O)(=O)C1)S(=O)(=O)c1cc([N+](=O)[O-])ccc1C (stereo unspecified)	8	3	7402	3.6	8	-4	4
84	CC(=O)N1CCc2cc(S(=O)(=O)CCC(=O)NCc3ccc(Cl)cc3)ccc21	-11	6	4688	9.6	0	-6	16
85	COc1ccc(OC)c(S(=O)(=O)Nc2ccc(CC(=O)O)cc2)c1	-3	3	4120	3.9	6	7	11
86	Cc1ccc(OCC(=O)OC(C)CN(C)Cc2ccccc2)cc1 (stereo unspecified)	-9	7	2506	3.3	12	6	4
87	O=C(O)c1sccc1S(=O)(=O)c1ccccc1	4	-8	2804	3.7	/	/	-1
88	COc1cccc(C(=O)O/N=C/c2ccc(Sc3ccc(C)cc3)nc2)c1	-19	-8	2334	/	/	/	/
